Sfp inh: inhibitors of Bacillus subtilis Sfp phosphopantetheinyl transferase; Q9F4F7; Biochemical Sfp PPTase activity, qHTS; Potency, µM, for the others: max response, negative = inhibition, usual class: inhibitors; 3.5% of 310,000 active; active means well fitted inhibition curve with a large enough effect; inconclusive means small, poorly fitted or top-dose-only effect, or another doubt; inactive means no such curve, though single readings can be large or run the other way;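 further: the enzyme is Sfp with the accession as filed and its product quenches rhodamine fluorescence; potency means the concentration at half of the fitted maximal effect; 0% = enzyme reaction without inhibitor and -100% = no enzyme wells; top concentration of the series not given in the record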
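Buffer: 50 mM Hepes-Na pH 7.6, 10 mM MgCl2, 0.01% Nonidet P-40, 0.01% BSA. Enzyme 15 nM, pre-exposed to compound 15 min; substrates then added and fluorescence change tracked over 30 min.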
ClpP mod: qHTS Assay for Activators of ClpP; purified B. subtilis ClpP, FRET peptide cleavage, 20 min; 1.9% of 340,000 active; Potency, µM (top dose mostly 57.5 µM), without a hit: at the highest dose activity change, negative = active; AID 651965, 2013; active = well fitted falling curve with a large enough effect; inconclusive = small, poorly fitted or top-dose-only effect; inactive = no such curve, though single readings can be large or run the other way; further: potency means the concentration at half of the fitted maximal effect; the source files actives as falling curves though it sought activators and does not explain the sign; nearly all actives have a fitted effect of over 65% in size; many hits overshoot -100%
Target sequence (P80244 whole entry, looked up): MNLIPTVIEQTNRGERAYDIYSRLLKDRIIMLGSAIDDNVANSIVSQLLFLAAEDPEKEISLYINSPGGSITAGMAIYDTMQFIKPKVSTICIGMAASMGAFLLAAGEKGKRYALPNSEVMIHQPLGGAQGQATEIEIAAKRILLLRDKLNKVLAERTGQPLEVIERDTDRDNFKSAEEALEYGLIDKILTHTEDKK
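Buffer: 100 mM Tris/HCl pH8, 100 mM KCl, 0.05% low protease BSA, 2.5% glycerol, 0.01% Tween-20. ClpP 10 microg/mL final; 20 min RT; delta FRET normalized to ADEP and DMSO controls.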
Menin MLL FP FL: displaces fluorescein MLL peptide from human menin; Fluorescence polarization, fluorescein-MLL peptide displacement from menin; FP activity change, % at 61.4 µM; 290,000 tested, under 10 active; inconclusive = falling polarisation curve, or a change in total fluorescence; inactive = total fluorescence flat and polarisation flat or rising; no compound was filed as active; the % refers to the polarisation; negative = inhibition;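 further: % of control where 0% means no effect; inhibitors lower the polarisation; unlabelled MLL peptide was the positive control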
gsp ag: gsp mutant agonism; Potency, µM (titrated, usually from 76.9 µM), for inactives: at the highest dose activation (cAMP increase), hits mostly activators; gsp mutant cells, cAMP HTRF, 30 min; control for the full effect not named in the record; 0.13% of 340,000 active; active = well fitted activation curve with a large enough effect; inconclusive = small, poorly fitted or top-dose-only effect, or another doubt; inactive = no such curve, though single readings can be large or run the other way; cell line not stated here;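 further: phosphodiesterase inhibitor Ro 20-1724 added with compounds to block cAMP breakdown; potency means the concentration at half of the fitted maximal effect; nearly all actives have a fitted effect of over 60% in size; about a fifth of the inactives were tested at one dose only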
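Cells in DMEM/10% FBS with G418 were pretreated with compounds in DMSO plus […] (300 uM stock) for 30 min at 37C. cAMP was measured by HTRF (cAMP-d2 plus anti-cAMP antibody-K) after 30 min at room temperature.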
gsp antag: antagonizes gsp, the McCune-Albright syndrome mutation; 0.4% of 340,000 active; Potency, µM (highest dose often 76.9 µM), inactives show top-dose activity change, negative = inhibition, hits mostly inhibitors; gsp-mutant cells, cAMP HTRF, 30 min; control for the full effect not named in the record; active = falling curve of any shape with a large fitted effect; inconclusive = falling curve, mostly with a smaller effect; inactive = flat or rising curve; cell line not stated here;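 further: intracellular cAMP measured with PDE inhibitor Ro 20-1724 present during compound exposure; potency means the concentration at half of the fitted maximal effect; on the % scale 0 is the no-effect control and ±100 the full control effect; nearly all actives have a fitted effect of over 65% in size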
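Cells, 2000/well, grown 16–24 h in DMEM 10% FBS with 0.5 mg/ml G418, then compounds plus […] (300 uM addition stock), 30 min at 37C. cAMP read by HTRF (cAMP-d2 and anti-cAMP antibody-K in lysis buffer) after 30 min RT.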
CtBP-E1A inh: inhibitors of CtBP/E1A interaction; AlphaScreen GST-E1A/His-CtBP binding, 1536-well; active compounds read low; control for the full effect not named in the record; activity change, % (test concentration not listed); 0.49% of 340,000 active; in the data active means activity change below about -65%; inconclusive means about -30% to -65%; inactive means above about -30%; further: on the % scale 0 is the no-effect control and ±100 the full control effect
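GST-E1A and His-tagged CtBP (125 nM each as 5X stock) were preincubated with pin-transferred compound for 2 h at 37 °C in the dark, then glutathione donor and nickel acceptor beads were added for 1 h before AlphaScreen reading.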
TRPV1 potentiator: potentiators of human vanilloid receptor 1 (TRPV1). TRPV1-expressing cells, Fluo-8 calcium influx, capsaicin EC20 potentiation; host cell line not named in the record; control for the full effect not named in the record. potentiation, % at 8.33 µM. 0.02% of 320,000 active. AID 540277; active means potentiation above 80%; inconclusive means 30% to 80%; inactive means below 30%; further: 0% is about no effect
Target sequence (Q8NER1 whole entry, looked up): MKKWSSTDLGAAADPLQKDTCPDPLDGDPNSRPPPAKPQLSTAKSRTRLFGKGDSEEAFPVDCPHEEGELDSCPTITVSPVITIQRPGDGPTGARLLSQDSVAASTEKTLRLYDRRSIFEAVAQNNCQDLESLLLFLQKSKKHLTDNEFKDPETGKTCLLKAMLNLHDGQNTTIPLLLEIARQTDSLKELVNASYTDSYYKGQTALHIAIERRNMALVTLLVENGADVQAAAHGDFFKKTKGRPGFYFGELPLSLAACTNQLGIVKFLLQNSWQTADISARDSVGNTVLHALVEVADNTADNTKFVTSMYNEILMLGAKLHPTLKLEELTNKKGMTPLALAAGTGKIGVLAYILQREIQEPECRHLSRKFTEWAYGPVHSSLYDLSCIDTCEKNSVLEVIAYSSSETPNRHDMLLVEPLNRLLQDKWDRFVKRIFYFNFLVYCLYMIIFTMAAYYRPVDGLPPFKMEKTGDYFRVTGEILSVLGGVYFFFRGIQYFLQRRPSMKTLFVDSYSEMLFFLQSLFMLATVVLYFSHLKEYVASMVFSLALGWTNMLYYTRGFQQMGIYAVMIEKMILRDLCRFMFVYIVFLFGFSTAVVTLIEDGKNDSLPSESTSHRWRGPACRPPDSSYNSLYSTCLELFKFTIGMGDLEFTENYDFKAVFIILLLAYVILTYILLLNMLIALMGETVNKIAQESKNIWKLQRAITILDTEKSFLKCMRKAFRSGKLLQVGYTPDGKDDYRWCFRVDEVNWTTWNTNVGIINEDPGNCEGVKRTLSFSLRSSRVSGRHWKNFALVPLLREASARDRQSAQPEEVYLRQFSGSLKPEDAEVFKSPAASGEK
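Fluo-8 calcium influx in TRPV1-expressing cells, kinetic read (ex 480/em 520 nm). Compound added and read 3 min for agonist activity, followed by capsaicin at EC20 final and 2 min further read for enhancement.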
An asterisk follows results filed as active; ? = inconclusive; nt = not tested or not shown; & = joins results of further samples; [ ] = another dose, or the depositor's remark.

Order of results – Sfp inh	ClpP mod	Menin MLL FP FL	gsp ag	gsp antag	CtBP-E1A inh	TRPV1 potentiator
- COc1ccc(-n2ncc3c(=O)n(CC(=O)N(C(C)C)C(C)C)cnc32)cc1
  23%	nt	-4.4	20%	20%	5	-18
- COc1cc(C2c3sc(=O)[nH]c3SC3C(=O)N(c4ccc(C)cc4)C(=O)C32)ccc1O (configuration not stated)
  ?	-0.7%	-7.8	-21%	-26%	0	14
- COc1cc(C(C(=O)NCc2ccccc2)N(Cc2ccco2)C(=O)c2cnccn2)cc(OC)c1OC (configuration not stated)
  -7%	0.7%	3.0	4%	8%	7	-3
- CN(C(=O)c1ccc(NC(=O)Cc2ccc(NC(=O)C3CCCN(C(=O)c4ccccc4)C3)cc2)cc1)C1CCCC1 (configuration not stated)
  nt	-1.6%	nt	nt	1%	-21	nt
- CCOC(=O)C[C@H]1c2cc(F)ccc2S(=O)(=O)N1C(C)(C)C
  nt	-0.4%&1.9%	nt	nt	10%	0	nt
- O=C1N=C(N2CCOCC2)S/C1=C\c1cccnc1
  13%	?	?	2%[15.4 µM]	-21%	3	-4
- Cn1c2ccccc2c2nnc(SCC(=O)Nc3cccc(O)c3)nc21
  -9%	-5.3%	0.2	?	10%	nt	-19
- O=C(N1CCOCC1)N1c2ccccc2CC(N2CCOCC2)c2ccccc21 (configuration not stated)
  14%	-4.4%	0.2	-1%	2%	0	6
- O=C1C=C(NC2CCCCC2)CCC1
  nt	-0.1%	nt	nt	4%	4	28
- Cc1cc(C)cc(OCc2nnc(SCC(=O)N3CCN(c4ccccc4)CC3)o2)c1
  12%	-2.9%	5.3	-14%	-1%	-4	10

Compound profiles (already shown). Order of screens: Sfp inh | ClpP mod | Menin MLL FP FL | gsp ag | gsp antag | CtBP-E1A inh | TRPV1 potentiator
Results for O=C(N1CCOCC1)N1c2ccccc2CC(N2CCOCC2)c2ccccc21 (configuration not stated) = 14% | -4.4% | 0.2 | -1% | 2% | 0 | 6
Results for O=C1N=C(N2CCOCC2)S/C1=C\c1cccnc1 = 13% | ? | ? | 2%[15.4 µM] | -21% | 3 | -4
Results for CN(C(=O)c1ccc(NC(=O)Cc2ccc(NC(=O)C3CCCN(C(=O)c4ccccc4)C3)cc2)cc1)C1CCCC1 (configuration not stated) = nt | -1.6% | nt | nt | 1% | -21 | nt

The results go on.
Order of results – Sfp inh	ClpP mod	Menin MLL FP FL	gsp ag	gsp antag	CtBP-E1A inh	TRPV1 potentiator
- O=C(Cc1ccc(S(=O)(=O)N2CCOCC2)s1)NCC(=O)Nc1ccccc1Br
  nt	-0.4%	nt	-21%	3%	0	8
- O=S1(=O)CCC(NS(=O)(=O)c2ccc3ccccc3c2)C1 (configuration not stated)
  30%[activator]	nt	0.6	0%	14%	6	-1
- COc1cccc(C(=O)CSc2nc3ccccc3n2CC(=O)N2CCOCC2)c1
  -16%	1.5%	-2.3	3%	-7%	2	-3
- CC(=O)c1cccc(NCC(=O)c2ccc(C)c([N+](=O)[O-])c2)c1
  18µM*	nt	0.9	-24%[15.4 µM]	-13%	16	1
- CC(C)C(NC(=O)C12CC3CC(CC(C3)C1)C2)C(=O)N/N=C/C1=C(N2CCOCC2)C(=C\c2cccc([N+](=O)[O-])c2)/CC1 (configuration not stated)
  -21%	-0.6%	1.7	-32%	?	18	-2
- Cc1cc(OCC(=O)NCCCn2ccnc2)c2c(C)c(C)c(=O)oc2c1
  18%	3.7%	0.6	14%	4%	-24	6
- Cc1ccc(S(=O)(=O)NC(C)(C)CSc2nncn2N)cc1
  11%	2.1%	3.1	-8%	2%	-5	-2
- CCOC(=O)c1ccc(N2C(=O)CC(SCC(=O)Nc3ccc(S(N)(=O)=O)cc3)C2=O)cc1 (configuration not stated)
  -18%	1.1%	-1.1	3%	1%	-3	4
- Cc1cccc(S(=O)(=O)Nc2nc3ccccc3nc2OC(C)C)c1
  4%	0.9%	0.1	0%[15.4 µM]	-1%	8	15
- Cc1ccccc1CC(=O)Nc1ccc2c(c1)CCC2
  30%[activator]	nt	-0.2	-58%[inhibitor]	2%	6	?
- Cc1ccc(C)c(NC(=O)CN(C)C(=O)c2cccc(N3C(=O)CCC3=O)c2)c1
  nt	nt	nt	15%[15.4 µM]	5%	0	-5
- c1ccc(-c2noc(CSc3nc4ccccc4o3)n2)cc1
  -23%	0.5%	3.9	-21%	-1%	44	8
- COC(=O)c1cccc(NC(=O)CSc2nnc(C)o2)c1
  14%	nt	1.0	?	9%	-21	-2
- O=C(CSc1ccc2ccccc2c1)Nn1cnnc1
  -11%	-1.3%	2.8	-2%	-8%	2	8
- Cc1ccc(S(=O)(=O)NC(=S)c2ccccc2)cc1
  nt	nt	nt	-4%[15.4 µM]	-4%	2	nt
- CCOc1ccc(NC(=O)CSc2nncc(=O)[nH]2)cc1
  10%	nt	-1.0	-3%	5%	8	-6
- Cn1c(C(=O)OCC(=O)NCC2CCCO2)cc2sccc21 (configuration not stated)
  12%	-15%	-1.7	-26%	4%	3	1
- CCCC(=O)NC(=S)Nc1ccc(Cl)cn1
  ?	3.1%	0.8	2%	-6%	-13	-3
- COc1ccc(NC(=O)CNC(=O)Cn2cnc3sc(C)c(C)c3c2=O)cc1OC
  16%	0.8%	nt	?	7%	3	-3
- COc1ccccc1NS(=O)(=O)c1cc(NC(=O)c2ccc(NC(C)=O)cc2)ccc1N1CCOCC1
  nt	-1.1%	nt	6%	-9%	-2	nt
- Cc1cccc(C(=O)NC(=S)NCc2ccccc2)c1
  nt	1.3%	nt	9%[15.4 µM]	-25%	-4	nt
- COc1ccc(S(=O)(=O)N2CCOCC2)cc1NS(=O)(=O)/C=C/c1ccccc1
  18%	nt	0.1	1%[15.4 µM]	-11%	-2	-51
- CN(CC(=O)Nc1ccc(Cl)c(S(=O)(=O)N2CCOCC2)c1)C(=O)c1cccs1
  nt	-3.0%	nt	5%	6%	-3	-7
- COc1ccccc1NC(=S)NNC(=O)c1ccc(Cl)cc1Cl
  14%	7.1%	2.8	-2%	?	-9	14
- COc1ccc(F)cc1CN1CCN(CC(=O)N2CCc3ccccc32)CC1
  -1%	nt	-2.5	-10%[15.4 µM]	5%	-7	15
- Cc1c(C(=O)NCc2ccccn2)oc2ccc(S(=O)(=O)N3CCC4(CC3)OCCO4)cc12
  12%	nt	1.0	0%[15.4 µM]	-2%	-14	-14
- CC(C)NC(=O)CSc1nc(Cc2ccccc2)nc2ccccc12
  2%	-7.1%	4.8	7%[15.4 µM]	-8%	-13	-8
- O=C(COC(=O)c1n[nH]c2ccccc12)NCCc1ccccc1
  nt	nt	nt	5%	-13%	3	nt
- O=C1NCCCCC1NS(=O)(=O)c1ccc(F)c(F)c1 (configuration not stated)
  10%	1.1%	3.0	-9%	1%	2	-2
- CCC(=O)NC(=S)Nc1ccc(S(=O)(=O)NC(C)=O)cc1
  10%	-1.0%	-1.1	-28%	5%[15.4 µM]	8	-14
- CCOC(=O)c1cc2n(n1)C(C(F)(F)F)CC(C)N2 (configuration not stated)
  14%	60%	2.6	8%	2%	-2	-5
- Cc1cccc(NC(=O)CN2C(=S)NC(C)(C)CC2C)c1 (configuration not stated)
  -11%	-0.9%	-2.7	1%[15.4 µM]	8%	1	-2
- COC(=O)[C@@H](Cc1c[nH]c2ccccc12)NC(=O)c1ccc2c(c1)OCO2
  3%	1.6%	5.4	-69%[inhibitor]	-11%	18	15
- COc1ccc(/C=N/NC(=O)c2ccncc2)cc1CN1CCOCC1
  23%	nt	5.7	-3%[15.4 µM]	8%	3	-24
- CN1CCN(c2nc3c(c(=O)n(C)c(=O)n3C)n2Cc2cccc3ccccc23)CC1
  8%	-3.3%	4.3	25µM*	3%	2	-1
- CNC(=O)[C@H]1O[C@@H](n2cnc3c(NCc4cccc(I)c4)nc(Cl)nc32)[C@H](O)[C@@H]1O
  -14%	1.1%	nt	nt	-10%	5	0
- O=C1CSC(c2ccc(Cl)cc2Cl)N1c1ccccn1 (configuration not stated)
  11%	1.5%	0.3	4%	-3%	0	-10
- O=C(CN1CCN(c2ccc([N+](=O)[O-])cc2Cl)CC1)N1CCOCC1
  -5%	nt	-1.4	-11%	4%	-21	-18
- Cc1nn(-c2ccccc2)c(Cl)c1/C=N/NC(=O)c1ccc(NS(=O)(=O)c2cccs2)cc1
  -5%	nt	4.7	nt	nt	nt	5
- O=C(CC1C(=O)CCCC1=O)c1ccccc1
  ?	nt	4.7	27%[15.4 µM]	0%	-2	0
- N#Cc1ccc(Cl)cc1NC(=O)CN1C(=O)C(=O)N(CCC2=CCCCC2)C1=O
  nt	2.4%	nt	?	nt	-9	nt
- CC(C)(C)C1=C[C@@H](CO)C[C@@H](CO)C1
  8%	?	3.1	37%	4%	-3	6
- N#Cc1nc(-c2ccco2)oc1NCc1ccccc1Cl
  -3%	1.7%	1.5	-35%[15.4 µM]	7%	-2	-3
- O=C(O)c1ccc(Cl)c(S(=O)(=O)NCc2cccnc2)c1
  7%	nt	-0.7	6%	5%	4	-2
- CCC(C)NC(=O)C(Sc1ccccc1)c1ccccc1 (configuration not stated)
  7%	nt	4.1	-17%[15.4 µM]	-3%	0	-2
- O=C(Nc1cc([N+](=O)[O-])ccc1O)NC1CCS(=O)(=O)C1 (configuration not stated)
  nt	-0.4%	nt	10%	-4%	-6	5
- O=C(CS(=O)Cc1ccccc1Cl)Nc1ccccc1Cl (configuration not stated)
  10%	nt	-1.0	4%[15.4 µM]	2%	0	9
- CCOC(=O)c1ccccc1NC(=O)CCNC(=O)Cn1cnc2ccccc2c1=O
  6%	-26%	-0.4	-3%	-2%	4	-11
- C=CCc1cccc(Cl)c1OCCON1C(=O)CCC1=O
  6%	-0.2%	-0.2	-34%[inhibitor]	-4%	3	10
- COc1cccc(NC(=S)NNC(=O)Cn2nc(C(F)F)cc2C(F)F)c1
  -2%	1.0%	2.5	-4%	0%	6	15
- CCn1nnnc1NCc1ccc(N2CCCC2)cc1
  ?	1.1%	6.1	20%	-13%	-18	-11
- Cc1ccccc1CSc1nnc(-c2cnccn2)n1C
  16%	-28%	6.2	-18%[15.4 µM]	5%	-17	5
